High-throughput results: PubChem, ICCB-Longwood Screening Facility, Harvard Medical School
Mtb MenB inh: Mtb MenB enzyme inhibition | P9WNP5 | MenB enzyme assay, absorbance read-out; some hits fall short of the stated cut | inhibition, %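 (about 12 µg/mL by stock and volumes)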 | 100,000 compounds, 0.43% hits | AID 540299;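 active means mean of two replicates above 30%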;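 further: 0% = no compound and 100% = wells with inactive enzyme; the first replicate is given; strong numbers were not always called active; inactives centre near -10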
Target sequence (P9WNP5 whole entry, looked up): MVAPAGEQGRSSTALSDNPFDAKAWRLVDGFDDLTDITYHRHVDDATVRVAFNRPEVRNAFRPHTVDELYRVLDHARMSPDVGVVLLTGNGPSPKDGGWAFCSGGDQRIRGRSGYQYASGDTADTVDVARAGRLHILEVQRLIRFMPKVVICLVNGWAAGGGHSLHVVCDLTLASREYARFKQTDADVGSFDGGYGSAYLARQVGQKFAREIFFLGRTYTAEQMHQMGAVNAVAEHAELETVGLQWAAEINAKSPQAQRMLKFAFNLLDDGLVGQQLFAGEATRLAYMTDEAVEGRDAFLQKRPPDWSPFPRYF
Mtb MbtI inh: MbtI salicylate synthase inhibition | P9WFX0 | inhibition, %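 (about 17 µg/mL by stock and volumes)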 | 100,000 compounds, 0.89% hits | purified MbtI enzyme, fluorescence intensity read-out;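 active means above 50% in both replicates, above 80% if mildly self-fluorescent; inactive means the rest, strongly fluorescent compounds included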;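 further: 0% = mean of negative and 100% = mean of positive controls; one replicate is shown; some compounds called inactive have numbers as strong as hits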
Target sequence (P9WFX0 whole entry, looked up): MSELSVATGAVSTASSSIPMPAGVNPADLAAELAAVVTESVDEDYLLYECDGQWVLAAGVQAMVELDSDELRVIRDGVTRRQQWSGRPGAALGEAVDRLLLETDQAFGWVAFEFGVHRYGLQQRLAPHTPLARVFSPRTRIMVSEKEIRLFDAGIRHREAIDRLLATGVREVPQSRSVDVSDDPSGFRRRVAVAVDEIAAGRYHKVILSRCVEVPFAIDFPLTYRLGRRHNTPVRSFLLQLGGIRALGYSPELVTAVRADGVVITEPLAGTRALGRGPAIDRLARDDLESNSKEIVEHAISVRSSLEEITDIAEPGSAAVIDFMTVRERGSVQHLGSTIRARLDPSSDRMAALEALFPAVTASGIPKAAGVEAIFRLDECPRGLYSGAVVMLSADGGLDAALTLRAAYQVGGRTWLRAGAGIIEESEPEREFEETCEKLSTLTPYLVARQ
Polio RdRp inh: poliovirus RNA polymerase inhibition; 150,000 compounds, 0.66% hits; AID 588519; poliovirus polymerase elongation, fluorescence polarization; active compounds read low; % elongation, % (compound at 16.7 µg/mL); in the data active means % elongation below about 90%; further: some results filed as inactive read as strong as hits
Polio RdRp inh intensity: further read-out of Polio RdRp inh, marked with its call; % elongation; measured here: total intensity read-out; formula for this scale not given here;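 total fluorescence in place of polarization; lower means less elongation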
Active calls of the source: *; · = no result given; & = joins results of further samples.

SMILES	Mtb MenB inh	Mtb MbtI inh	Polio RdRp inh	Polio RdRp inh intensity
Cc1nnc(N/N=C/C(C)c2ccccc2)[nH]c1=O (configuration not stated)	-20	-6	104	101
O=S1(=O)N=C(N2CCCCCC2)c2ccccc21	-3	50	102	104
Cc1ccc(S(=O)(=O)NCCN=Cc2ccc3c(c2)OCO3)cc1	1	3	99	102
O=C(CCSc1ccccc1)NC1CCCCC1	-8	21	104	107
CC(=O)N1CCN(CCN=CC2=C(O)CC(c3ccccc3)CC2=O)CC1 (configuration not stated)	2	4	98	100
Cc1cc(C(=O)Oc2ccc(C(=O)c3ccc(F)cc3)cc2)on1	7	-8	98	99
COc1c(Cl)cc(Cl)cc1/C=C(\C#N)C(N)=O	25	83	102	103
CCn1c(SCC(=O)NC(=O)Nc2ccccc2F)nnc1-c1ccccc1	-20	-9	106	109
O=C1CSc2ccc(C(=O)NCC3COc4ccccc4O3)cc2N1 (configuration not stated)	-12	-2	103	104
O=C(CSc1cn(CC(=O)N2CCOCC2)c2ccccc12)NCc1ccco1	1	-1	104	104
NS(=O)(=O)c1ccc(CCNc2ccccn2)cc1	-5	54	92	99
Cc1nn(Cc2cccc(C(=O)NN3CCCCC3)c2)c(C)c1Cl	-35	-3	101	103

Continued; the last six above are carried over.
SMILES	Mtb MenB inh	Mtb MbtI inh	Polio RdRp inh	Polio RdRp inh intensity
COc1c(Cl)cc(Cl)cc1/C=C(\C#N)C(N)=O	25	83	102	103
CCn1c(SCC(=O)NC(=O)Nc2ccccc2F)nnc1-c1ccccc1	-20	-9	106	109
O=C1CSc2ccc(C(=O)NCC3COc4ccccc4O3)cc2N1 (configuration not stated)	-12	-2	103	104
O=C(CSc1cn(CC(=O)N2CCOCC2)c2ccccc12)NCc1ccco1	1	-1	104	104
NS(=O)(=O)c1ccc(CCNc2ccccn2)cc1	-5	54	92	99
Cc1nn(Cc2cccc(C(=O)NN3CCCCC3)c2)c(C)c1Cl	-35	-3	101	103
Cc1ccc2c(CNC3CCCC3)c(C(=O)O)[nH]c2c1	8	136	104	104
COc1cccc(C2C3=C(CC(C)(C)CC3=O)Nc3ccccc3N2C(C)=O)c1OC (configuration not stated)	-23	6	102	103
N/C(=N\OC(=O)C1CCCCC1)c1ccccc1	23	-5	102	100
O=C(OCC(=O)N1CCCCC1)c1cc2ccccc2cc1O	7	-19	103	110
CCN(C(=O)COc1ccc(Cl)cc1C)c1ccccc1	-20	-10	103	101
Cc1cc(-n2c(C)cc(C(=O)OCc3c(Cl)cccc3Cl)c2C)no1	-25	-8	110	109
O=C1CCCC/C1=N\Nc1ccc(N2CCCCC2)cc1	-77	7	102	102
O=C(NC1CCCC1)C1CCCN(S(=O)(=O)c2cccc3cccnc23)C1 (configuration not stated)	3	-7	102	105
CNC(=O)C1CCN(S(=O)(=O)c2c(C)noc2/C=C/c2cccc(C)c2)CC1	-36	12	101	102
COc1cc(NC(=O)c2ccc(CSC3CCCCC3)cc2)cc(OC)c1OC	-5	·	100	104
N#Cc1cccc2c1-c1ccccc1C2	-7	-16	104	105
Cc1cc(C)n(/N=C2\CCCc3ccccc32)c(=O)c1C#N	-20	-11	101	108
CCCCCC[C@H]1C(=O)O[C@H](C)C(NC(=O)c2cccc(NC=O)c2O)C(=O)O[C@@H](C)[C@@H]1OC(=O)CC(C)C (some centres not stated)	-6	-115	103	100
CCn1cc(S(=O)(=O)N2CCC3(CC2)OCCO3)cn1	-6	-10	100	101
COc1ccc(-n2c(NN)nc3sc4c(c3c2=O)CCC4)cc1	6	24	105	98
NC(=O)C1(c2ccccc2)CCCN1C(=O)c1ccc(Br)cc1 (configuration not stated)	0	-2	101	113
COc1ccc(-c2nc(C#N)c(NN3CCOCC3)o2)cc1	0	105	101	103
N#Cc1ccccc1NC(=O)COC(=O)Cc1ccc(Br)cc1	·	-9	102	106
Cc1cc(C(=O)OCn2nnc3ccccc3c2=O)c(C)o1	-30	-9	103	107
CCNc1nc(N2CCOCC2)nc(N2CCC(Cc3ccccc3)CC2)n1	-25	-2	105	109
CCN1CCN(c2nc3ccccn3c(=O)c2/C=C2\SC(=S)N(CC)C2=O)CC1	-5	1	79	192
CC1CN(CC(C)C(=O)NN)CC(C)O1 (configuration not stated)	-17	-6	110	106
CC(=O)NO	15	-7	101	105
Cc1cccc(NC(=O)Cn2c(=O)sc3ccccc32)c1	-41	-10	104	102
Cc1ccc(CN2CC34C=CC(O3)C(C(=O)O)C4C2=O)cc1 (configuration not stated)	-14	-13	101	103
S=C(NCCN1CCOCC1)Nc1ccc(-c2nnc3n2CCCCC3)cc1	-19	3	105	110
COc1ccc(C2C(C(=O)NCc3ccco3)c3ccccc3C(=O)N2C)cc1 (configuration not stated)	4	-4	100	103
COC(=O)C1(OC)COc2ccccc2O1 (configuration not stated)	3	-11	102	104
CCOC(=O)C1=C(C)Nc2ccccc2N/C1=N\S(=O)(=O)c1ccccc1	-26	4	105	107
CCCNC(=O)c1c(O)nc2ccccn2c1=O	0	28	101	101
CC(=O)NC(=O)/C(C#N)=C/N1CCOCC1	-9	32	102	99
CN(Cc1ccccc1F)C(=O)c1cccc(S(=O)(=O)N(C)C)c1	4	6	105	102
COc1ccc(-c2nn(C)c3sc(C(=O)O)cc23)cc1OC	9	2	100	103
O=C(COc1cc2ccccc2cc1C(=O)N1CCOCC1)Nc1ccc2c(c1)OCCO2	1	0	100	101
O=C1CC(CS(=O)(=O)c2ccc(C(F)(F)F)cn2)=NN1c1ccccc1	3	-2	104	101
CCCOc1ccc(C2/C(=C(/O)c3ccc(C)c(F)c3)C(=O)C(=O)N2Cc2ccco2)cc1 (configuration not stated)	6	-1	101	102

An excerpt of these results, as a markdown table.
| mol | Mtb MenB inh | Mtb MbtI inh | Polio RdRp inh | Polio RdRp inh intensity |
| --- | --- | --- | --- | --- |
| COc1ccc(C2C(C(=O)NCc3ccco3)c3ccccc3C(=O)N2C)cc1 (configuration not stated) | 4 | -4 | 100 | 103 |
| COC(=O)C1(OC)COc2ccccc2O1 (configuration not stated) | 3 | -11 | 102 | 104 |

Continuation:
SMILES	Mtb MenB inh	Mtb MbtI inh	Polio RdRp inh	Polio RdRp inh intensity
CC(=O)Nc1ccc(OC(=O)c2ccccc2O)cc1	4	-156	100	100
C=CCNCc1ccc(-c2cccc(Cl)c2C)o1	-54	·	101	100
CCOC(=O)c1c(C)[nH]c(C)c1C(=O)CSc1nnc2oc3ccc(S(=O)(=O)N(C)C)cc3n12	-29	11	102	104
CC(C)c1ccc(NC(=O)CSc2n[nH]c(=O)n2C2CC2)cc1	6	0	101	97
NC(=O)CSc1nnc(C2CC2)n1CC1CCCO1 (configuration not stated)	-14	-14	103	102
O=c1ccc(-c2ccc(S(=O)(=O)NCc3ccccc3)s2)n[nH]1	-19	17	102	103
CCOC(=O)C(C(=O)Nc1cccc(C(F)(F)F)c1)C1CCCCC1 (configuration not stated)	-29	13	101	102
COc1ccc(C(NC(=O)CSc2nncn2C(C)C)c2ccccc2)cc1 (configuration not stated)	-21	2	107	110
O=C(COC(=O)CCc1c[nH]c(=O)[nH]1)Nc1ccc2ccccc2c1	-18	-19	100	104
CC(=O)N1CN2CN(C(C)=O)CC(C(=O)c3ccccc3)(C2)C1	-39	-18	102	103
ClCc1cccc2c(CCl)cccc12	·	-5	99	99
CCC1(C)N=C(c2ccccc2)C(=S)N1 (configuration not stated)	-24	51	98	103

Retrieved by structure from above:
SMILES	Mtb MenB inh	Mtb MbtI inh	Polio RdRp inh	Polio RdRp inh intensity
CC(=O)NO	15	-7	101	105
O=C1CCCC/C1=N\Nc1ccc(N2CCCCC2)cc1	-77	7	102	102
COc1ccc(C2C(C(=O)NCc3ccco3)c3ccccc3C(=O)N2C)cc1 (configuration not stated)	4	-4	100	103
O=C(CSc1cn(CC(=O)N2CCOCC2)c2ccccc12)NCc1ccco1	1	-1	104	104
CCOC(=O)C1=C(C)Nc2ccccc2N/C1=N\S(=O)(=O)c1ccccc1	-26	4	105	107

Remaining list, next part.
SMILES	Mtb MenB inh	Mtb MbtI inh	Polio RdRp inh	Polio RdRp inh intensity
O=C(/C=C/c1ccco1)N1CC=C(c2ccccc2)CC1	-11	6	105	105
O=CNc1ccc(OC(=O)c2cncc(Br)c2)cc1	-23	-8	78*	73*
CC1=C(c2ccc(Cl)cc2)S(=O)(=O)N=C1N1CCC(C(=O)NC2CCCC2)CC1	7	-16	100	102
CC12CC(c3ccccc3O1)C(C(=O)NCc1ccccc1)C(=O)N2 (configuration not stated)	19	-25	103	103
CCOC(=O)N1CCN(C(=S)Nc2cc(OC)c(OC)cc2C(=O)OC)CC1	-8	-20	100	103
COc1ccc(N2C(=O)/C(=C\c3ccco3)N=C2SCc2cc(=O)n3ccsc3n2)cc1Cl	-5	6	122	124
COc1ccc(/C=C2/Oc3ccccc3N(CC(=O)NC3CCCc4ccccc43)C2=O)cc1 (configuration not stated)	-23	-11	101	104
O=C(Cc1n[nH]c(=O)c2ccccc12)NCC1CCCO1 (configuration not stated)	-11	2	103	101
COc1ccc(Cc2nc(S(=O)(=O)c3ccc(C)cc3)c(NCc3ccccc3)o2)cc1	-20	78	101	103
CN(C)C(CNC(=O)c1cccc(OC(F)F)c1)c1ccco1 (configuration not stated)	-32	3	·	·
NC(=O)NC(=O)Nc1ccc(Cl)cc1	-52	-7	100	103
O=C(CSc1nnc(-c2ccccc2)c(-c2ccccc2)n1)NCCC1=CCCCC1	1	9	100	102

Compound profiles, as listed above. Screens in order: Mtb MenB inh, Mtb MbtI inh, Polio RdRp inh, Polio RdRp inh intensity
COc1ccc(/C=C2/Oc3ccccc3N(CC(=O)NC3CCCc4ccccc43)C2=O)cc1 (configuration not stated) is entered as -23, -11, 101, 104
COc1ccc(Cc2nc(S(=O)(=O)c3ccc(C)cc3)c(NCc3ccccc3)o2)cc1 is entered as -20, 78, 101, 103
NC(=O)NC(=O)Nc1ccc(Cl)cc1 is entered as -52, -7, 100, 103
COc1ccc(N2C(=O)/C(=C\c3ccco3)N=C2SCc2cc(=O)n3ccsc3n2)cc1Cl is entered as -5, 6, 122, 124

(more compounds)
SMILES	Mtb MenB inh	Mtb MbtI inh	Polio RdRp inh	Polio RdRp inh intensity
NC(=O)C1CCCN1S(=O)(=O)c1ccc(F)cc1 (configuration not stated)	-41	2	100	100
c1ccc(Cn2c(-c3ccccc3)nc3ccccc32)cc1	-10	33	107	108
CCOC(=O)/C(C#N)=C/Nc1nc(CN2CCCCC2)cs1	-36	12	118	125
CC(=O)NC1(C(F)(F)F)C(=O)Nc2c1c(=O)[nH]c(=O)n2Cc1ccco1 (configuration not stated)	-39	1	103	104
CCN(/N=C\c1ccccc1O)C(=S)NC	-14	4	100	102
Cc1c(C)c2c(ccc3c(C)cc(=O)oc32)oc1=O	19	-10	101	99
COc1ccc(C(CC(=O)N2CCN(Cc3ccccc3)CC2)n2cccc2)cc1 (configuration not stated)	-1	-9	100	103
O=C(NC(=S)Nc1ncccn1)c1cccs1	-15	1	104	103
CCOCC(=O)Nc1cccc(C(F)(F)F)c1	2	-7	101	100
COC(=O)Cc1nc(NC(=O)c2ccc(OC)cc2)sc1C	-11	64	103	100
CCOc1ccc(C(=O)OCC(=O)Nc2cccc(Cl)c2)cc1	·	-2	102	106
Cc1c(Cl)cccc1Nc1ccccc1C(=O)O	-3&1	48&43	101&106	101&103
CN1CCN(/N=C/c2ccc(-c3ccccc3)cc2)CC1	-10	-3	102	97
Cc1ccc(Oc2ccc3c(c2)C(=O)N(CC(=O)O)C3=O)cc1	-20	9	101	103
COc1cccc(CNC(=O)c2ccc3nc[nH]c3c2)c1	9	0	·	·
CC1(C)CC(=O)C2=C(C1)N(Cc1cccnc1)C(=O)NC2(C(F)(F)F)C(F)(F)F	7	4	100	103
O=S(=O)(Nc1cccnc1)c1ccccc1	-3	·	109	112
Cc1ccc(N/C=C/C(=O)c2ccc(C)o2)c(O)c1	-153	2	90	149
OC(COc1ccc(Br)cc1)CN1CCOCC1 (configuration not stated)	5	0	102	104
COC(=O)c1oc2ccc(Cl)cc2c1C	-20	0	101	101
COc1cc(/C=c2\sc3nc(-c4ccco4)nn3c2=O)cc(Br)c1OC(C)=O	-8	0	104	106
O=C(NC1CCN(Cc2ccccc2)CC1)c1cc(-c2ccco2)nc2ccccc12	-42	125	101	100
O=C(O)CNC(=O)c1ccc2c(c1)OCO2	0	26	103	106
CCOC(=O)CC(=O)c1sc2c(c1N)c(=O)[nH]c(=O)n2-c1ccc(OC)cc1	-85	17	97	98
C/C(=N\NC(N)=O)c1ccc(-n2ccnc2)cc1	2	2	100	104
C[C@H](NC(=O)c1ccco1)C(=O)Nc1nc(-c2ccccn2)cs1	-33	13	108	111
CCOC(=O)C1=C(C)NC(C)=C(C(=O)OCC)C1C(=O)OCC(=O)N1c2ccccc2CC1C (configuration not stated)	-2	-21	104	110
CCOC(=O)c1[nH]c(C)c(C(=O)OCc2nc3ccc(Cl)cc3n2CCO)c1C	-21	-2	111	121
CC1CC(NC(=O)c2c(O)nc3ccccn3c2=O)CC(C)(C)C1 (configuration not stated)	1	-8	103	104
